Screens from PubChem.
Menin MLL FP FL = displaces fluorescein MLL peptide from human menin; Fluorescence polarization, fluorescein-MLL peptide displacement from menin; FP activity change, % at 61.4 µM; 290,000 tested, under 10 active; AID 1766; inconclusive = falling polarisation curve, or a change in total fluorescence; inactive = total fluorescence flat and polarisation flat or rising; no compound was filed as active; the % refers to the polarisation; negative = inhibition;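 note: % of control where 0% means no effect; inhibitors lower the polarisation; unlabelled MLL peptide was the positive control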
gsp antag = gsp mutant antagonism; actives 0.4% (n = 340,000); gsp-mutant cells, cAMP HTRF, 30 min; control for the full effect not named in the record; Potency, µM (highest dose often 76.9 µM), for the others: top-dose activity change, negative = inhibition, actives largely listed as inhibitors; active = falling curve of any shape with a large fitted effect; inconclusive = falling curve, mostly with a smaller effect; inactive = flat or rising curve; cell line not stated here;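 note: intracellular cAMP measured with PDE inhibitor Ro 20-1724 present during compound exposure; potency is the fitted concentration of half-maximal effect; % is set by controls: 0 for no effect and ±100 for the full control effect; nearly all actives have a fitted effect of over 65% in size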
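Measurement of cellular cAMP by homogeneous time-resolved fluorescence following a 30 min compound exposure at 37C. The PDE inhibitor […] was present throughout; the assay buffer was DPBS with 0.05% BSA and 0.005% Tween 20.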
gsp agonist = activates gsp, the McCune-Albright syndrome mutation. gsp mutant cells, cAMP HTRF, 30 min; control for the full effect not named in the record. Potency, µM (titrated, usually from 76.9 µM), inactives show at the highest dose activation (cAMP increase), most hits filed as activators. actives 0.13% (n = 340,000). AID 624287; active = well fitted activation curve with a large enough effect; inconclusive = small, poorly fitted or top-dose-only effect, or another doubt; inactive = no such curve, though single readings can be large or run the other way; cell line not stated here;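 note: phosphodiesterase inhibitor Ro 20-1724 added with compounds to block cAMP breakdown; potency is the fitted concentration of half-maximal effect; nearly all actives have a fitted effect of over 60% in size; about a fifth of the inactives were tested at one dose only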
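Cells stably selected in G418 were plated at 2000/well, grown 16-24 hr, then given compounds in DMSO with the PDE inhibitor […] (300 uM solution added) for 30 min at 37C; cAMP was read by HTRF.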
TRPV1 potentiator = enhances activation of the human vanilloid receptor TRPV1; Q8NER1; potentiation, % at 8.33 µM; AID 540277; TRPV1-expressing cells, Fluo-8 calcium influx, capsaicin EC20 potentiation; host cell line not named in the record; control for the full effect not named in the record; actives 0.02% (n = 320,000); active means potentiation above 80%; inconclusive means 30% to 80%; inactive means below 30%; note: 0% is about no effect
Target sequence (Q8NER1 whole entry, looked up): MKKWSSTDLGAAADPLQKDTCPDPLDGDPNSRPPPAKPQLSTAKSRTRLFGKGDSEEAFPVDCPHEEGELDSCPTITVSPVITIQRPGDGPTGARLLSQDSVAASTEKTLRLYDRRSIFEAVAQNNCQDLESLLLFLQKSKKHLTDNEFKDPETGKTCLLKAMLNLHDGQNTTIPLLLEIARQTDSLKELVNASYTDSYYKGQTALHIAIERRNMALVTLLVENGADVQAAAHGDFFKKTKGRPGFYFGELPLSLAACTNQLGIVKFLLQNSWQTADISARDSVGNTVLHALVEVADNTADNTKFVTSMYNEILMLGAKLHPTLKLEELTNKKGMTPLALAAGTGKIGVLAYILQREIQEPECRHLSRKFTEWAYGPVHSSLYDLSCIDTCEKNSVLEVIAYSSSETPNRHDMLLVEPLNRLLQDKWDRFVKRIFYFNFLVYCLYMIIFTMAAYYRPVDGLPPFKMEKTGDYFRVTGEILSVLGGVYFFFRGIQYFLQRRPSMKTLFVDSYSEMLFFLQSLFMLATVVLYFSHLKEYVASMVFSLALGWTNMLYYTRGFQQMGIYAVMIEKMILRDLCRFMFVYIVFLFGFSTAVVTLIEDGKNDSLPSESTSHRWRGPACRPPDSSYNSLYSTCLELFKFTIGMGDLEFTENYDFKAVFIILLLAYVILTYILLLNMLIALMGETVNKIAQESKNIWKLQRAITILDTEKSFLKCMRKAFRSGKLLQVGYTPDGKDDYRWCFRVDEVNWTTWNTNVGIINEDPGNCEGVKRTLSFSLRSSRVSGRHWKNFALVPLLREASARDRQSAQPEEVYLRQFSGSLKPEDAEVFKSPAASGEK
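Cells expressing TRPV1 were dye-loaded with Fluo-8 and read kinetically: 10 s baseline, 3 min after compound (agonist portion), then 2 min after EC20 capsaicin (allosteric enhancer portion). Calcium-bound dye fluorescence at 480/520 nm.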
ClpP mod = qHTS Assay for Activators of ClpP | purified B. subtilis ClpP, FRET peptide cleavage, 20 min | Potency, µM (top dose mostly 57.5 µM), without a hit: at the highest dose activity change, negative = active | actives 1.9% (n = 340,000); active = well fitted falling curve with a large enough effect; inconclusive = small, poorly fitted or top-dose-only effect; inactive = no such curve, though single readings can be large or run the other way; note: potency is the fitted concentration of half-maximal effect; the source files actives as falling curves though it sought activators and does not explain the sign; nearly all actives have a fitted effect of over 65% in size; many hits overshoot -100%
Target sequence (P80244 whole entry, looked up): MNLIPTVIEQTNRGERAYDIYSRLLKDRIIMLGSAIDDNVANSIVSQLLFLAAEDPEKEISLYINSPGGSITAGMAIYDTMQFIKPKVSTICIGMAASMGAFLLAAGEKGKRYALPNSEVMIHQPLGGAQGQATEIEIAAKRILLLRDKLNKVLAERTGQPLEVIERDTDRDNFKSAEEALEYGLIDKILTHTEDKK
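Buffer: 100 mM Tris/HCl pH8, 100 mM KCl, 0.05% low protease BSA, 2.5% glycerol, 0.01% Tween-20. ClpP 10 microg/mL final; 20 min RT; delta FRET normalized to ADEP and DMSO controls.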
Sfp inh = Sfp phosphopantetheinyl transferase inhibition | Q9F4F7 | Biochemical Sfp PPTase activity, qHTS | Potency, µM, inactives show max response, negative = inhibition, usual class: inhibitors | actives 3.5% (n = 310,000) | AID 1490; active = well fitted inhibition curve with a large enough effect; inconclusive = small, poorly fitted or top-dose-only effect, or another doubt; inactive = no such curve, though single readings can be large or run the other way;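 note: the enzyme is Sfp with the accession as filed and its product quenches rhodamine fluorescence; potency is the fitted concentration of half-maximal effect; 0% = enzyme reaction without inhibitor and -100% = no enzyme wells; top concentration of the series not given in the record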
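Buffer: 50 mM Hepes-Na pH 7.6, 10 mM MgCl2, 0.01% Nonidet P-40, 0.01% BSA. Enzyme 15 nM, pre-exposed to compound 15 min; substrates then added and fluorescence change tracked over 30 min.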
CtBP-E1A inh = CtBP/E1A binding inhibition. actives 0.49% (n = 340,000). activity change, % (no concentration beside the values). AlphaScreen GST-E1A/His-CtBP binding, 1536-well; active compounds read low; control for the full effect not named in the record. AID 651724; in the data active means activity change below about -65%; inconclusive means about -30% to -65%; inactive means above about -30%; note: % is set by controls: 0 for no effect and ±100 for the full control effect
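Homogeneous bead-based format: GST-tagged E1A captured on glutathione donor beads, His-tagged CtBP on nickel acceptor beads; compounds precede bead addition by 2 h at 37 °C.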
* = called active by the depositor; ? = inconclusive; . = no result given; & = joins results of further samples; [ ] = remark or other dose.

SMILES	Menin MLL FP FL	gsp antag	gsp agonist	TRPV1 potentiator	ClpP mod	Sfp inh	CtBP-E1A inh
O=C(CCc1ccccc1)Nc1ccccc1[N+](=O)[O-]	3.4	8%	-5%[15.4 µM]	-18	0.7%	13%	3
C#CC[N+](C)(C)CC#Cc1ccc(Cl)cc1	-0.3	8%	-7%[15.4 µM]	4	.	14%	9
Cc1sc2ncnc(N(C)CCc3ccccn3)c2c1C	-4.5	-3%	9%[15.4 µM]	-4	.	?	-2
COc1ccc(-c2nnc3n2N=C(C)CS3)cc1OC	0.2	13%	-3%	24	0.9%	10%	1
CCCCNc1c(-c2ccc(Sc3ccc(OC)cc3)cc2)nc2cc(C)ccn12	.	-11%	?	.	4.5%	.	-6
Cc1ccc(C(=O)CCC(=O)N2CCN(C(=O)c3ccco3)CC2)cc1	-1.5	-8%	-14%[15.4 µM]	0	.	5%	.
CCOc1ccc(NC(=O)Cn2nnc(C(=O)NCc3ccc(OC)cc3)c2N)cc1	0.2	16%	-12%	-1	0.0%	-6%	5
CCCc1nnc(SCc2ccc(C(=O)OC)o2)n1N	0.0	6%	-66%[inhibitor]	-6	-0.8%	-25%	-1
O=c1c2ccccc2sn1-c1ccc(S(=O)(=O)N2CCCC2)cc1	4.5	-9%	5%	10	-2.8%&0.5%	3.2µM*	6
CCc1nnc(NC(=O)NC(C)(C)C)s1	1.5	2%	?	-2	1.4%	6%	-2
CCOC(=O)N1CCN(S(=O)(=O)c2ccc(C(=O)N(CCN(CC)CC)c3nc4c(C)cccc4s3)cc2)CC1	-4.5	10%	-25%	-3	0.5%	-3%	-3
O=C(NCCc1ccccn1)c1c(-c2ccsc2)sc2ccccc12	.	-14%	.	.	-5.8%	.	-14
Cc1onc(-c2ccccc2)c1C(=O)NN1CCOCC1	.	4%	5%	.	-2.4%	.	-2
CCn1cc(S(=O)(=O)NCc2ccc(OC)cc2)cn1	.	8%	?	10	-3.1%	16%	-10
CC(OC(=O)CC1CCCC1)C(=O)Nc1ccc(S(N)(=O)=O)cc1 (stereo not given)	.	4%	20%[15.4 µM]	9	.	.	6
COc1ccc(CCNC(=O)CN2CCC(n3nnc4cc(F)ccc43)CC2)cc1OC	-0.1	6%	1%	-2	-8.5%	27%	4
CN(C)C(=O)COC(=O)c1cccc(S(=O)(=O)N2CC3(C)CC2CC(C)(C)C3)c1 (stereo not given)	.	-8%	-17%	-17	-2.2%	.	-12
COc1ccc(/C=N/NC(=O)c2cccc(NC(=O)c3ccccc3Cl)c2)cc1	-7.3	22%	9%[15.4 µM]	-1	.	16%	-11
Cc1c(C(=O)Nc2cccc(S(=O)(=O)N3CCCC3)c2)oc2ccccc12	7.0	-18%	-29%	4	9.0%	13%	-10
COc1ccc(/C=C2/C(=O)N(c3ccccc3)N=C2C)c(OC)c1	0.1	-3%	-44%[inhibitor]	9	0.7%	-1%	-9
O=C(CN1C(=O)CCSc2ccccc21)Nc1cccc(F)c1	0.3	-3%	-4%	9	-1.8%	21%	-1
Cc1ccc(C(=O)NCC(=O)OCC(=O)N2CC(C)OC(C)C2)cc1 (stereo not given)	.	6%	1%	-1	-13%	.	-22
COc1ccc2[nH]c(CN3CCC(n4nccc4NC(=O)C4CC4)CC3)c(C)c2c1	.	1%	-26%	15	?	16%	-1
N#Cc1ccc(NC(=O)c2nc(-c3ccccc3)n(-c3ccccc3)n2)cc1	0.3	19%	15%	2	-3.7%	13%	2
CCOC(=O)c1c(C)c(C(=O)NCc2ccccc2OC)c(C)n1C	0.8	-5%	?	13	-0.1%	9%	-6
Cc1ccc(NC(=O)CCN2CCN(CCO)CC2)cc1Br	9.1	18%	13%	1	0.7%	10%	30
O=C(Nc1ccccc1)N1CCc2ccccc2C1	-1.9	10%	0%	-11	-1.2%	2%	7
CC(C)CC(=NNC(=O)c1ccncc1)c1cc(Cl)ccc1O	.	-4%	0%[15.4 µM]	.	-0.5%	.	-22
Cc1ccc(CCN=c2c([N+](=O)[O-])nn(-c3ccccc3)n2O)cc1	-2.5	1%	-7%[15.4 µM]	3	.	4%	-9
COc1cccc(CNc2ccc(F)c([N+](=O)[O-])c2)c1O	1.4	-4%	9%[15.4 µM]	9	.	12%	-8

Arranged by value in Sfp inh (rising): 4 from the list above
SMILES	Menin MLL FP FL	gsp antag	gsp agonist	Sfp inh	CtBP-E1A inh
Cc1ccc(CCN=c2c([N+](=O)[O-])nn(-c3ccccc3)n2O)cc1	-2.5	1%	-7%[15.4 µM]	4%	-9
CCOC(=O)c1c(C)c(C(=O)NCc2ccccc2OC)c(C)n1C	0.8	-5%	?	9%	-6
COc1cccc(CNc2ccc(F)c([N+](=O)[O-])c2)c1O	1.4	-4%	9%[15.4 µM]	12%	-8
COc1ccc2[nH]c(CN3CCC(n4nccc4NC(=O)C4CC4)CC3)c(C)c2c1	.	1%	-26%	16%	-1

(more compounds)
SMILES	Menin MLL FP FL	gsp antag	gsp agonist	TRPV1 potentiator	ClpP mod	Sfp inh	CtBP-E1A inh
Cc1cccc(NC(=O)c2cccc(N3C(=O)C4C5CCC(C5)C4C3=O)c2)c1C (stereo not given)	3.3	-13%	4%	-6	0.8%	11%	5
COc1ccc(Cn2c(CCC(=O)NCc3ccco3)nc3cccnc32)cc1	-1.0	-12%	2%	-17	0.1%	15%	-1
O=C(O)Cn1ccc2cc(S(=O)(=O)N3CCCCC3)ccc21	.	.	-45%[inhibitor]	.	-1.6%	.	-3
O=C(NNC(=O)c1ccncc1)Nc1cccc(C(F)(F)F)c1	.	12%	1%	?	-2.1%	15%	1
COc1ccc(NC(=O)CSc2nc3c(cc2C#N)CN(C)CC3)cc1	2.2	2%	-3%	-1	-4.2%	10%	-6
Cn1c(=O)c2c(nc(SCc3ccc(F)cc3)n2C)n(C)c1=O	2.3	-2%	6%[15.4 µM]	5	-1.1%	15%	16
CN(Cc1ccccc1)C(=O)CCS(=O)(=O)c1ccc2c(c1)n(C)c(=O)c(=O)n2C	4.0	-3%	?	6	?	8%	1
Cc1csc(=O)n1CC(=O)OC(C)C(=O)Nc1ccc(N(C)C)cc1 (stereo not given)	.	-24%	10%[15.4 µM]	.	.	.	-6
CC(C(=O)NCC1CCCCC1)N(C)CC(=O)Nc1ccc(N2CCOCC2)cc1 (stereo not given)	-0.4	12%	-1%[15.4 µM]	3	.	13%	-9
C[C@H](CO)N1C[C@H](C)[C@@H](CN(C)C(=O)Nc2ccc3c(c2)OCO3)Oc2c(cccc2N(C)C)C1=O	.	1%	.	.	-5.0%	.	5
COc1ccc(-c2ccnc3c(C#N)cnn23)cc1	1.0	9%	6%[15.4 µM]	12	.	7%	-15
Cc1ccc(S(=O)(=O)N(C)C)cc1NC(=O)COC(=O)c1ccc2c(c1)OCO2	0.0	-11%	0%	22	-21%	5%	1
CC(Sc1ccsc1[N+](=O)[O-])C(=O)NCCc1ccc(Cl)cc1 (stereo not given)	7.3	-31%	5%	-1	1.2%	5%	-14
S=C(Cc1ccccc1)NCCc1ccccc1	.	1%	-48%[inhibitor]	-13	-1.0%	.	7
COc1ccc(C(=O)OCC(=O)c2ccc(C)c(S(=O)(=O)N3CCOCC3)c2)cc1OC	6.4	28µM*	6%	9	2.1%	1%	-18
CC1=C(C(=O)Nc2ccccc2C)C(c2ccc(C)o2)C2=C(CCCC2=O)N1 (stereo not given)	0.0	5%	-32%[inhibitor]	30	-0.8%	7%	17
Cc1cccc(N2CCN(C(=O)c3ccc(CS(=O)Cc4ccc(Cl)cc4)o3)CC2)c1C (stereo not given)	.	-25%	11%	0	-1.3%	-22%	-11
CCCNC(=O)C1(CC2CC(c3ccccc3)=NO2)CCN(C(=O)C2(C)CC2)CC1 (stereo not given)	.	7%	15%	.	3.4%	.	7
COc1cc2[nH]c(=O)n(CCC(=O)N3CCC(N4CCCCC4)CC3)c(=O)c2cc1OC	0.3	6%	-18%	7	32µM*	9%	-3
CCOC(=O)CCC(NC(=O)c1cncc(O)c1)C(=O)OCC (stereo not given)	-0.8	2%	9%	-1	28µM*	-22%	4
Cc1noc(C)c1C(=O)Nc1cc(Cl)ccc1N1CCOCC1	.	-2%	3%	-22	-1.6%	.	.
NC(=O)C1(N2CCCCC2)CCN(C2CC(=O)N(CCc3ccccc3)C2=O)CC1 (stereo not given)	8.0	5%	-6%	0	-1.4%	21%	-5
CN1CCN(c2oc(-c3ccc([N+](=O)[O-])cc3)nc2C#N)CC1	1.2	2%	19%	-13	-2.7%	3%	.
CCN(CC)C(=O)c1[nH]cnc1C(=O)N[C@H](C)c1ccccc1	.	7%	.	-3	-0.2%	.	4
CC(C)C(=O)Nc1ccc2c(c1)nc(CCN1CCN(C)CC1)n2C	0.7	19%	?	?	-7.8%	16%	8
O=C1NC2(O)C(=O)c3ccccc3C2(O)N1 (stereo not given)	-0.2	13%	-5%[15.4 µM]	22	0.3%	26%	0
CC(C)NS(=O)(=O)c1ccc(NC(=O)c2cccnc2)cc1	-1.4	-1%	12%	-13	-2.0%	-2%	-24
O=C(C[n+]1cccc(CNC(=O)c2ccc(OC(F)F)cc2)c1)c1ccccc1	-4.5	17%	-2%[15.4 µM]	-6	.	9%	-19
Cc1ccc(OCC(=O)Oc2ccccc2[N+](=O)[O-])cc1	.	6%	-3%[15.4 µM]	.	1.5%	.	2
O=C(O)c1cccc(C(=O)O)c1Br	0.1	11%	1%	-12	1.7%	12%	8
COc1ccc(C(=O)NNC(=O)C(=O)Nc2ccc(C)c(Cl)c2)cc1	-0.6	-7%	-10%	-2	2.6%	-19%	.
CCOc1ccc(NC(=O)COc2coc(CN3CCc4ccccc4C3)cc2=O)cc1	.	-3%	9%	-5	-2.7%	.	-14
O=C(COC(=O)c1cccc(S(=O)(=O)N2CCOCC2)c1)Nc1ncc(Cl)cc1Cl	.	-15%	9%	12	0.4%	.	2
O=C(Cc1nc2ccccc2[nH]1)c1ccc([N+](=O)[O-])cc1	0.9	-6%	19%[15.4 µM]	-3	.	16µM*	-2
CCOc1ccc(N(CC(=O)Nc2cccc(C)c2)S(C)(=O)=O)cc1	-2.4	3%	0%[15.4 µM]	15	-0.6%	3%	-17

Nothing new here: entries from further up.
SMILES	Menin MLL FP FL	gsp antag	gsp agonist	TRPV1 potentiator	ClpP mod	Sfp inh	CtBP-E1A inh
O=C(CCc1ccccc1)Nc1ccccc1[N+](=O)[O-]	3.4	8%	-5%[15.4 µM]	-18	0.7%	13%	3
C#CC[N+](C)(C)CC#Cc1ccc(Cl)cc1	-0.3	8%	-7%[15.4 µM]	4	.	14%	9
